Screening data deposited in PubChem by ICCB-Longwood Screening Facility, Harvard Medical School.
MgrA DNA FP = modulators of Staphylococcus aureus MgrA DNA binding | fluorescence polarization | inhibition, %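 (about 10 µg/mL by stock and volumes)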 | hit rate 0.13% among 84,000;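 active means above 50% in either of two replicates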;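 further: 0% = protein plus DNA without compound and 100% = DNA alone without protein; higher means less MgrA bound to DNA so lower polarization; one replicate is shown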
S aureus helic = S. aureus DNA helicase inhibition; inhibition, %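 (tested at about 80 µM)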; purified S. aureus helicase, fluorescence unwinding assay; about half of the hits fall short of the stated cut; hit rate 0.05% among 120,000;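 active means both duplicates at 50% or more, or one of them with a favoured structure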;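 further: 0% = mean of negative control wells and 100% = mean of positive control wells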
* = called active by the depositor; · = not tested or not shown; & = joins results of further samples. A portion of the library; count on the stated rates, not on these rows.

Every second line gives: S aureus helic, MgrA DNA FP
O=C(O)C1Cc2c([nH]c3ccccc23)C(c2ccc(Br)cc2)N1 (stereo not drawn)
 : ·, 0.4
CCOC(=O)Cc1csc(NS(=O)(=O)c2cn(C)cn2)n1
 : ·, -0.1
Cc1ccc(CN2CCCC(CO)C2)cc1 (stereo not drawn)
 : 19, 5.2
CC(Oc1cccc(Cl)c1)n1cncn1 (stereo not drawn)
 : 3, ·
COc1cc(NC(=O)N2CCOc3ccccc32)cc(OC)c1OC
 : 6, -0.7
O=C(O)C1CCN(c2nc3ccccc3o2)CC1
 : 11, ·
CC1(C)Cc2cccc(OCC(=O)Nc3ccc(OCC(N)=O)cc3)c2O1
 : 5, 4.5
C=CCNC(=O)CN1CCC(C(O)(c2ccccc2)c2ccccc2)CC1
 : -1, ·
N#CC1(C(=O)OCC(=O)N2CCN(C(=O)COC(=O)C3(C#N)CCCC3)CC2)CCCC1
 : 17, ·
COc1ccc(-c2cc(C(=O)NC3CCCCC3C)c3ccccc3n2)cc1 (stereo not drawn)
 : 9, 0.5
CC1=NOC(=O)/C1=C\c1cccs1
 : ·, 11
O=C(c1ncc[nH]1)c1cccs1
 : ·, -1.1
CC(=O)N(Cc1nc(-c2ccccc2)no1)C1CCCCC1
 : 15, -3.5
COc1nnc(-c2ccc(C)cc2)c2ccccc12
 : ·, -0.7
Cc1ccc(C2SCCN2S(C)(=O)=O)cc1 (stereo not drawn)
 : 18, ·
O=C(CSc1nnnn1-c1ccccc1)c1ccc2c(c1)OCO2
 : -4, ·
CC(=O)NC1c2ccccc2Oc2ccccc21
 : 16, -2.8
CC(C)Sc1ccc2nnc(-c3cccnc3)n2n1
 : 11, ·
Cc1cc2cc(CNC(=O)c3ccc4ccccc4c3)ccc2[nH]1
 : 17, 0.0
CCOC(=O)C(C)Oc1cccc2c(=O)n(CC(=O)NC3CCCCC3)ccc12 (stereo not drawn)
 : 22, ·
Cc1ccc2nc(SCC(=O)Nc3ccccc3C(F)(F)F)[nH]c2c1
 : ·, -1.5
N#CCC(=O)NN=C1CCCCCCCCCCC1
 : 9, 0.8
CCC(=O)N1CCc2cc(Br)cc(S(=O)(=O)Nc3c(C)n(C)n(-c4ccccc4)c3=O)c21
 : 19, ·
CSc1nc(-c2ccccc2)ccc1C(N)=O
 : 2, -0.5
Cc1c(C(=O)N2CCCCC2)sc(N)c1C#N
 : -9, ·
CN(C)CCNc1cc(-c2cccnc2)nc2ccccc12
 : ·, 1.8
Cn1nnnc1SCC(=O)CSc1nnnn1C
 : 18, ·
O=C1c2cccc3cccc(c23)N1C(=O)C1CCCCC1
 : -16, 1.4
O=C(O)c1c[nH]c2ccc(F)cc2c1=O
 : 13, -1.6
c1ccc(CCn2c(SCc3nnc(-c4ccccc4)o3)nc3ccccc32)cc1
 : 3, ·
Cn1c(=O)c2c(ncn2CCCCn2cnc3c2c(=O)n(C)c(=O)n3C)n(C)c1=O
 : ·, -1.6
Cc1nn(-c2ccccc2)nc1C(=O)ONC(=O)c1ccccc1
 : -4, ·
CCC(C)(NC(=O)Cc1ccccc1)C(=O)Nc1ccc2c(c1)OCCO2 (stereo not drawn)
 : 6, ·
CCCNc1c(NC(=O)c2ccc3c(c2)OCO3)c(=O)oc2ccccc12
 : 6, ·
Cn1c(/C=C/C=C/N2CCCC2)nc2ccccc2c1=O
 : ·, 4.0
Cc1cc(C)c(C)c(S(=O)(=O)N2CCNCC2)c1C
 : 14, -0.5
S=c1nccc(-c2ccccc2)[nH]1
 : 5, ·
N#CCC(=O)Nc1ccc(C(F)(F)F)cc1N1CCOCC1
 : 9, -3.2
CCc1cccc2c(C(=O)CSc3nnnn3C3CCCC3)c[nH]c12
 : -7, ·
O=C(CC1CCCC1)NC12CC3CC(CC(C3)C1)C2
 : -20, -0.9
CCOc1ccccc1NC(=O)C1CCN(c2ncccn2)CC1
 : -1, 2.6
O=c1[nH]c2cc(C(F)(F)F)ccc2n(Cc2ccccc2)c1=O
 : 12, -9.1
CC1CCN(S(=O)(=O)c2cc(Br)ccc2Br)CC1
 : 8, 0.5
O=C(NCc1cccs1)c1cc(-c2ccccc2)oc1C(F)(F)F
 : ·, 0.3
O=C1c2ccccc2C(=O)N1COc1cccc2cccnc12
 : 1, 1.1
COc1ccc(C2=N/C(=C/c3cccnc3)C(=O)O2)cc1OC
 : -22, ·
Cc1nn(Cc2ccccc2Cl)c2sc(C(=O)NC3CC3)cc12
 : 7, ·
CS(=O)(=O)N1CCC(c2noc(-c3ccc(C(F)(F)F)cc3)n2)CC1
 : -3, 0.8
CC(C)C(=O)c1c(O)c2ccccc2oc1=O
 : 5, -5.5
COCc1cc(=O)oc2cc(NS(=O)(=O)c3ccc(C)cc3)ccc12
 : ·, -11
CCCC(=O)N1CCN(c2ccc(NC(=S)NC(C)=O)cc2Cl)CC1
 : 15, 1.0
CCCCN(C)C(=O)c1cn(CC)c2nc(C)ccc2c1=O
 : 3, 0.3
Cc1cc(C)n(C2CC(=O)N(N(C)C)C2=O)n1 (stereo not drawn)
 : -4, -0.7
CC1Cn2cc(C(=O)Nc3cccc(F)c3)c(=O)c3c(Cl)ccc(c32)O1 (stereo not drawn)
 : 0, 0.5
CCCS(=O)(=O)NCc1ccc2c(c1)cc(C)n2C
 : 10, ·
C=CCN1CCN(Cc2nnnn2Cc2ccc(OC)cc2)CC1
 : -2, 0.5
C/C(=N/O)c1ccc2c(c1)OCCO2
 : 1, -0.8
N#CCSc1ccc2nnc(CCNS(=O)(=O)c3ccccc3)n2n1
 : 1, 1.3
CCOC(=O)Cn1c(=N)n(Cc2ccc(Cl)c(Cl)c2)c2ccccc21
 : 12, -0.9
CCN(CC)c1ccc(/C=N/NC(=O)c2ccccc2)cc1
 : 2, -0.3

(further entries)
Every second line gives: S aureus helic, MgrA DNA FP
Fc1cccc(F)c1C=Nc1ccc(-c2nc3ccccc3[nH]2)cc1
 : 6, -0.3
COCCCNC(=O)c1cccs1
 : ·, 2.6
Cc1ccc(C)c(NC(=O)CSC2=NC3C(=O)N(C)C(=O)N(C)C3N2C)c1 (stereo not drawn)
 : 18, ·
COc1ccccc1NC(=O)/C(C#N)=C/c1cn(C)c2ccccc12
 : 3, ·
COc1ccc(C2C=C(c3ccccc3)Nc3nc(NC(=O)Cc4ccccc4)nn32)cc1 (stereo not drawn)
 : -3, ·
CC(C)(NO)/C(=N\O)c1ccccc1
 : ·, -1.4
COCCCNC(=S)N/N=C/c1ccc[nH]1
 : ·, 0.2
COc1nsc(NN)c1C#N
 : 1, -2.5
Nc1c(C(=O)NCc2ccco2)nnn1-c1ccc(Cl)cc1
 : -4, 0.5
CC(=O)OCC(=O)c1cc(C(F)(F)F)cc(C(F)(F)F)c1
 : ·, -2.9
CCC1(C)CC(CCN2C(=O)c3ccccc3C2=O)(c2ccc(C)cc2)CCO1 (stereo not drawn)
 : -8, 2.5
O=C(NCC1CC1)c1ccccc1NS(=O)(=O)c1ccc(F)cc1F
 : ·, 0.9
Cc1ccc(CCNC(=O)C2CCN(c3nnc(-n4cccc4)s3)CC2)cc1
 : 16, ·
CCN1CCN(C(=O)C(c2ccccc2)c2ccccc2)CC1
 : 7, -2.8
C=C(C)CN(CC)Cc1cc(OC)cc(OC)c1
 : 6, -0.8

Random excerpt: 3 compounds from above, in no set order.
Every second line gives: S aureus helic, MgrA DNA FP
O=C(CC1CCCC1)NC12CC3CC(CC(C3)C1)C2
 : -20, -0.9
CC(C)Sc1ccc2nnc(-c3cccnc3)n2n1
 : 11, ·
Nc1c(C(=O)NCc2ccco2)nnn1-c1ccc(Cl)cc1
 : -4, 0.5

One compound at a time, from the list above:
Results for C=CCN1CCN(Cc2nnnn2Cc2ccc(OC)cc2)CC1 → S aureus helic: -2; MgrA DNA FP: 0.5
Results for Cc1cc(C)n(C2CC(=O)N(N(C)C)C2=O)n1 (stereo not drawn) → S aureus helic: -4; MgrA DNA FP: -0.7

(continued)
Every second line gives: S aureus helic, MgrA DNA FP
CCN(CC)C(=O)CCCN1C(=O)/C(=C/c2ccc(OC)cc2)SC1=S
 : -3, ·
O=C(O)CSCSCC(=O)O
 : ·, 1.8
Cc1oc(-c2ccccc2)nc1C(=O)Nc1ccccc1C(=O)NC1CC1
 : 2, ·
c1ccc(-c2nsc(-n3ccc(-c4cccs4)n3)n2)cc1
 : ·, 0.6
CCn1cc(C(CC(=O)O)C(=O)O)c2ccccc21 (stereo not drawn)
 : -27, ·
COc1cc(S(=O)(=O)N2CCN(c3cc(C)ccc3C)CC2)c(OC)cc1Cl
 : 3, -0.9
O=C(CSc1nnc(OC(=O)c2cccs2)n1C1CC1)c1ccc2c(c1)OCCO2
 : ·, 4.1
CCOC(=O)COc1nc(C)cc(C)n1
 : 0, ·
Cc1cc(C(=O)NCC2COc3ccccc3O2)c2ccccc2n1 (stereo not drawn)
 : -2, ·
O=C(CSc1ccccc1[N+](=O)[O-])NNC(=S)NC1CC2C=CC1C2 (stereo not drawn)
 : ·, 4.2
O=S1(=O)CC(c2ccccc2)CS(=O)(=O)C12CCCC2
 : 21, -1.6
O=S(=O)(/N=C(/NC(=S)OC1CCCCC1)c1ccccc1)c1ccccc1
 : -11, 0.5
N#CCOc1cc(Sc2ccccc2)ccc1[N+](=O)[O-]
 : ·, -4.3
CC12CCCCN1CCCc1c2[nH]c2ccccc12 (stereo not drawn)
 : -4, 0.4
Cc1[nH]c2ccccc2c1C=Nc1ccc(N=Cc2c(C)[nH]c3ccccc23)cc1
 : 16, -0.8
Cc1ccc(CSc2nc3ccc(C(=O)N4CCN(c5ccccc5)CC4)cc3n2C)cc1
 : -2, 0.2
O=C(O)CCS(=O)(=O)c1ccc2[nH]c(=O)c(=O)[nH]c2c1
 : 2, ·
C=CCn1c(SCC(N)=O)nnc1-c1ccc(OC)c(OC)c1
 : -13, ·
O=C(COc1ccccc1)Nc1cccc(-c2nnc(-c3ccco3)o2)c1
 : -3, ·
N#Cc1c(Cl)cccc1N1CCSCC1
 : ·, -0.5
O=C(Nc1ccc(F)cc1F)c1ccc(COc2c(F)c(F)cc(F)c2F)o1
 : 32, ·
CC1=C(C#N)C(c2cccnc2)C2=C(N1)c1ccccc1C2=O (stereo not drawn)
 : -10, ·
COC(=O)c1cc2sccc2n1C(C)C(=O)Nc1cc(Cl)ccc1C (stereo not drawn)
 : 0, 0.1
COc1ccc(C(=O)Nc2ccc(S(=O)(=O)N3CCCCC3C)cc2)c(OC)c1OC (stereo not drawn)
 : 8, -2.6
COc1cccc(-c2nc3ccccc3c(=O)n2NC(=O)Cn2nc(C(F)(F)F)c(Br)c2C)c1
 : ·, -1.0
CC1C/C(=N\O)c2cc(Cl)ccc2S1(=O)=O (stereo not drawn)
 : 6, ·
CCC1CCCCN1C(=O)c1cc(-c2ccc(F)cc2)on1 (stereo not drawn)
 : 19, ·
COc1nc(N)nc(C2CC2)n1
 : ·, -2.4
CCN(CC(=O)Nc1ccc2c(c1)OCCO2)Cc1cc(=O)oc2cc(C)c(C)cc12
 : -4, ·
NC(=O)COC(=O)c1cc(-c2ccccc2)nc2ccccc12
 : -17, -0.2
Cc1ccc(C(=O)OCC(=O)N2CCCC2)s1
 : 7, 3.1
CCCc1ncc(C[n+]2ccccc2C)c(N)n1
 : ·, 3.5&3.6
CCc1ccc(Nc2ncnc3nc[nH]c23)cc1
 : 8, ·
O=C(NC(=O)c1c(F)cccc1F)O/N=C1\CCCc2occc21
 : 15, ·
CCOC(=O)NC(=S)Nc1cccc(C)n1
 : ·, 3.2
Cc1cc2nc3c(c(C(F)(F)F)n2n1)CCc1ccccc1-3
 : -12, ·
FC(F)(F)COc1nc(OCC(F)(F)F)nc(OCC(F)(F)F)n1
 : -4, -1.6
Clc1ccc2c(c1)NC(c1ccc(Cl)c(Cl)c1)O2 (stereo not drawn)
 : ·, 0.3
CCCc1cc(=O)[nH]c(/N=C(/NC(=O)C(C)N2C(=O)c3ccccc3C2=O)Nc2ccccc2)n1 (stereo not drawn)
 : 8, 0.9
O=c1oc2ccccc2cc1S(=O)(=O)c1ccc(F)cc1
 : 5, -3.3
COC(=O)Cc1cc(OC)c(OC)cc1C(C)=O
 : ·, 0.7
CCO/C=N/Nc1nc(C(F)(F)F)nc2c1cnn2-c1ccccc1
 : -6, ·
COc1ccc(C2C(C#N)=C(N)N3CCc4cc(OC)c(OC)cc4C3=C2C#N)cc1 (stereo not drawn)
 : ·, -1.4
COC(=O)C1Cc2c([nH]c3ccccc23)C2(CCN(Cc3ccccc3)CC2)N1 (stereo not drawn)
 : ·, 0.9
O=C(CN1CCc2ccccc21)NN1CC(=O)N(c2ccccc2)CC1=O
 : 24, ·
Cc1ccc2c(c1)N(CCC(=O)NC1CCC(C)CC1)C(=O)CO2 (stereo not drawn)
 : 12, -1.1
COC(=O)c1cccn1-c1ccccc1[N+](=O)[O-]
 : ·, 2.1
O=S(=O)(c1ccccc1)N1CCN(c2ccccc2)CC1
 : 6, -0.4
Cc1ccc(NCCC(=O)O)cc1
 : 13, -1.9
O=C(Nc1cccc(Cl)c1)N1CCN(CCc2ccccc2)CC1
 : 19, 0.1
O=c1cc(CN2CCCC2)nc(-c2cc(C(F)(F)F)cc(C(F)(F)F)c2)[nH]1
 : ·, -0.1
N#CC(C#N)CC(=O)c1ccc(Cl)cc1
 : ·, -1.5
Cc1cc(/C=C(\C#N)C(=O)OCN2C(=O)c3ccccc3C2=O)c(C)n1CC(C)C
 : 11, ·
CN(C(=O)CSc1nc2ccccc2c(=O)n1C)c1ccccc1
 : -7, 1.5
CC(NC(=O)CN(C)Cc1cccc(F)c1)c1ccccc1 (stereo not drawn)
 : 0, ·

As entered above:
S aureus helic with Cc1cc(/C=C(\C#N)C(=O)OCN2C(=O)c3ccccc3C2=O)c(C)n1CC(C)C is entered as 11
MgrA DNA FP with N#CC(C#N)CC(=O)c1ccc(Cl)cc1 is entered as -1.5
S aureus helic with CC(NC(=O)CN(C)Cc1cccc(F)c1)c1ccccc1 (stereo not drawn) is entered as 0
MgrA DNA FP with O=C(Nc1cccc(Cl)c1)N1CCN(CCc2ccccc2)CC1 is entered as 0.1
